VACV mCherry inh – inhibitors of vaccinia virus infection (mCherry reporter signal); Vaccinia virus mCherry reporter infection, fluorescence; about a quarter of the inactives have no number; Potency, µM (top dose mostly 36.5 µM), inactives show at the top dose activity change, negative = inhibition, actives largely listed as inhibitors; hit rate 0.63% among 310,000; active = well fitted inhibition curve with a large enough effect; inconclusive = small, poorly fitted or top-dose-only effect; inactive = no such curve, though single readings can be large or run the other way; tested in A549 cells; further: nearly all actives have a fitted effect of over 35% in size; inactives centre near -10
VACV Venus inh – inhibitors of vaccinia virus (Venus reporter). hit rate 0.46% among 330,000. Vaccinia virus Venus reporter expression, fluorescence. AID 720580. Potency, µM (doses to about 36.5 µM), inactives show at the top dose activity change, negative = inhibition, actives largely listed as inhibitors; active means well fitted inhibition curve with a large enough effect; inconclusive means small, poorly fitted or top-dose-only effect; inactive means no such curve, though single readings can be large or run the other way; tested in A549 cells; further: nearly all actives have a fitted effect of over 30% in size; inactives centre near -10
* marks the source's active call; other numbers are inactive results; i = inactive; ? = inconclusive; . = not tested or not shown; & = joins results of further samples; [ ] = remark or other dose. On the % scale 0 is the no-effect control and ±100 the full control effect; potency means the concentration at half of the fitted maximal effect.

Results follow in this order: VACV mCherry inh, VACV Venus inh
1	CC1=C(C(=O)N2CCOCC2)CC(CC(=O)NCC2CCCCC2)C(=O)N1CCC1=CCCCC1 (configuration not stated)
    ?, ?
2	Cc1cc(C)cc(N(CC(=O)Nc2ccccc2C(=O)N2CCOCC2)S(C)(=O)=O)c1
    -15%, -6%
3	O=C(CCN1CCCCC1)Nc1ccccc1
    -14%, -15%
4	CCCn1c(=O)c2c(c3ccccc31)OC(C)C(=O)N2 (configuration not stated)
    ., -16%
5	O=S(=O)(c1ccc(NC(=S)NCc2ccco2)cc1)N1CCCCC1
    i, -11%
6	Cc1c(N=Cc2ccccn2)c(=O)n(-c2ccccc2)n1C
    i, -12%
7	CCN(CC(=O)N1CCCCCC1)S(=O)(=O)c1ccc(Cl)cc1
    i, 0%
8	CC(NC(=O)COC(=O)CNC(=O)c1ccccc1Cl)C1CC2CCC1C2 (configuration not stated)
    -12%, 0%
9	O=C(COC(=O)c1nc(Cl)ccc1Cl)Nc1ccc2[nH]c(=O)[nH]c2c1
    -14%, 1%
10	CC(OC(=O)c1nc(Cl)ccc1Cl)C(=O)c1ccccc1 (configuration not stated)
    i, -5%
11	C=CCOc1ccc(/C(O)=C2\C(=O)C(=O)N(CCN(C)C)C2c2cccs2)cc1 (configuration not stated)
    i, -3%
12	N#CC1=C2SCN(Cc3ccccc3)CN2C(=O)CC1c1ccccc1F (configuration not stated)
    i, -15%
13	C[C@H](CO)N1C[C@H](C)[C@@H](CN(C)Cc2ccccc2)OCCCC[C@H](C)Oc2ccc(N(C)C)cc2C1=O
    -7%, 3%
14	Cc1ccccc1NC(=S)NC12CN3CN(CN(C3)C1)C2
    -11%, -1%
15	CCOP(=O)(OCC)/C(=N/OC(=O)c1ccccc1C)C(N)=O
    -3%, -10%
16	Cc1cc(-c2nc3ccccc3c(=O)o2)ccc1[N+](=O)[O-]
    i, 0%
17	Cc1ccc2nc(Nc3ccc(C)c(F)c3)c3nncn3c2c1
    -30%, -23%
18	CC(=O)Nc1nnc(SCC(=O)N2C(C)CCCC2C)s1 (configuration not stated)
    -12%, -5%
19	O=C(O)Cn1cccc1C(=O)c1ccccc1
    i, -4%
20	COc1ccc(C(CNC(=O)CNS(=O)(=O)c2ccc(NC(C)=O)cc2)N2CCOCC2)cc1 (configuration not stated)
    -1%, 2%
21	COC(=O)c1ccccc1NC(=O)c1cnn2c1NC(=C1CC1)C=C2C(F)F
    -1%, -17%
22	COc1ccc(OC)c(NC(=O)NNC(=O)COc2ccc(F)cc2F)c1
    -12%, -16%
23	COc1ccccc1NC(=S)NNC(=O)c1nn(C)cc1Cl
    -5%, -3%
24	COc1ccc(Cc2nnc(NC(=O)CS(=O)(=O)c3ccc(C)cc3)s2)cc1OC
    -15%, -9%
25	O=C1N=C(N2CCCCC2)S/C1=C/C1=Cc2ccccc2OC1
    -1%, -5%
26	COCCN(C(=O)CSc1nc(-c2ccccc2)cn1N)c1c(N)n(Cc2ccccc2)c(=O)[nH]c1=O
    i, -7%
27	CCN(CC)C(=O)Cn1nc(-c2ccc(Cl)cc2)c2ccccc2c1=O
    5%, -14%
28	O=[N+]([O-])c1ccc(-c2nnc(CNC3CCCC3)o2)cc1
    -10%, -4%
29	Cc1ccc2ccc3cccc4ccc1c2c34
    i, -10%
30	CS(=O)(=O)N(CC(=O)NCc1ccncc1)c1ccc(F)c(Cl)c1
    i, -7%
31	COc1cc(C2C(C#N)=C(N)N(Nc3ccccc3)C3=C2C(=O)CC(C)(C)C3)ccc1OCc1ccccc1 (configuration not stated)
    ?, ?
32	COc1cccc(C(=O)NC(C)c2ccc(Br)cc2)c1 (configuration not stated)
    -24%, -14%
33	O=S1(=O)CC(N2CCSCC2)CN1Cc1cn(Cc2ccccc2)nn1 (configuration not stated)
    7%, 10%
34	CSc1cccc(NP2(=O)OCC(C)([N+](=O)[O-])CO2)c1 (configuration not stated)
    -22%, -15%
35	CCC(=O)Nc1ccc(-c2csc(NNC(C)=O)n2)cc1
    i, -12%
36	O=C(Nc1ccccc1Oc1ccccc1)c1cc([N+](=O)[O-])ccc1Cl
    -4%, -15%
37	Cc1ccc(N2CC(C(=O)Nc3cccc(F)c3)CC2=O)cc1 (configuration not stated)
    i, -22%
38	O=C(CN1CCc2ccccc2C1)Nc1ccccc1C(F)(F)F
    -6%, 1%
39	O=C1CCCC/C=C\C[C@H](CC(=O)N(CCO)Cc2ccccc2)C(=O)N[C@@H](Cc2ccccc2)CO1
    i, -17%
40	COc1cccc(-c2ccc3c(c2)O[C@@H](CN(C)C(=O)C2CCOCC2)[C@H](C)CN([C@H](C)CO)S3(=O)=O)c1
    -8%, -16%
41	Cc1ccc(C(=O)Oc2cccc(NC(=O)c3ccccc3)c2)cc1C
    -6%, -18%
42	CC1Cc2cc(S(=O)(=O)CCC(=O)Nc3ccc(F)cc3)ccc2N1C(=O)C1CC1 (configuration not stated)
    -5%, -8%
43	COc1ccc(S(=O)(=O)Nc2ccc(C)cn2)cc1
    i, -6%
44	CCOC(=O)N1CCN(C(=O)CSc2nc3nc(C)cc(C)n3n2)CC1
    -12%, -19%
45	CN(C(=O)c1ccccc1F)C(c1ccccc1)c1ccccc1
    2%, 7%
46	Cc1cccc(C)c1Cn1c(C)c(C(=O)NCc2ccccc2C(F)(F)F)sc1=O
    9%, 2%
47	Cc1cc(Cl)ccc1C(=O)C1CCCN(C(=O)c2n[nH]c3c2CCCC3)C1 (configuration not stated)
    i, -12%
48	COc1ccc(S(=O)(=O)NCCc2sc(-c3ccccc3)nc2C)cc1F
    -3%, -1%
49	CC1Cc2cc(/C(O)=C3/C(=O)C(=O)N(CCCn4ccnc4)C3c3ccc(F)cc3)ccc2O1 (configuration not stated)
    -20%, 4%
50	FC(F)(F)c1cnc(NNC(=S)Nc2ccccc2Cl)c(Cl)c1
    ?, ?
51	COc1cccc(NC(=O)Cc2nnc(SCC(=O)c3ccccc3)n2C)c1
    ., -19%
52	CC(=O)c1cccc(S(=O)(=O)NCCc2csc3nc(-c4ccc(F)cc4)nn23)c1
    -6%, -15%
53	COc1ccc(NC(=S)NCCc2c[nH]c3ccccc23)cc1
    -28%, -22%
54	Cc1cccc(NC(=S)NC(=O)c2ccco2)n1
    i, 3%
55	NC(=O)c1ccc(NC(=O)c2ccc(COc3ccccc3Br)cc2)cc1
    -6%, 5%
56	Cc1cc(C(=O)NNC(=O)c2ccc(C(F)(F)F)cc2)no1
    1%, -14%
57	COC(=O)COc1ccc(S(=O)(=O)NCCC2=CCCCC2)cc1Cl
    -15%, -2%
58	O=C(COC(=O)C12CC3CC(CC(C3)C1)C2)NC12CC3CC(CC(C3)C1)C2
    -10%, -27%
59	O=C(CCCC1=NS(=O)(=O)c2ccccc2N1)NCCc1ccc(Cl)cc1
    i, -16%
60	COc1ccc(Cl)cc1NS(=O)(=O)c1cccc(C(=O)NCC(c2ccco2)N2CCCC2)c1 (configuration not stated)
    -7%, -27%

Fetched one by one from above (two):
Results follow in this order: VACV mCherry inh, VACV Venus inh
42	CC1Cc2cc(S(=O)(=O)CCC(=O)Nc3ccc(F)cc3)ccc2N1C(=O)C1CC1 (configuration not stated)
    -5%, -8%
55	NC(=O)c1ccc(NC(=O)c2ccc(COc3ccccc3Br)cc2)cc1
    -6%, 5%

(continued)
Results follow in this order: VACV mCherry inh, VACV Venus inh
61	COc1ccc2cc(CN(Cc3ccco3)C(=S)NCC3CCCO3)c(=O)[nH]c2c1 (configuration not stated)
    -1%, 1%
62	CN1CCN(S(=O)(=O)c2cccc(C(=O)Nc3ccccc3N3CCCCC3)c2)CC1
    i, -12%
63	CC(=O)N1CCN(C(c2ccccc2)c2nnnn2C(C)(C)C)CC1 (configuration not stated)
    -1%, 8%
64	COc1cccc(CN(CC2CCCO2)S(=O)(=O)c2ccc(-n3cnnn3)c(OC)c2)c1 (configuration not stated)
    i, 0%
65	O=C(Nc1ccccc1C(=O)O)/C(=C/c1ccc([N+](=O)[O-])cc1)NC(=O)c1ccc(Br)o1
    16%, 5%
66	Cc1cccc(Sc2c(C=O)c3ccccc3n2C)c1
    ., -20%
67	COc1ccc(C(=O)OCC(=O)N(C)C2CCS(=O)(=O)C2)cc1S(=O)(=O)N(C)Cc1ccccc1 (configuration not stated)
    i, -22%
68	CCC(c1nnnn1-c1ccc2c(c1)OCCO2)N1CCN(C(C)=O)CC1 (configuration not stated)
    0%, 9%
69	CN1CCN(S(=O)(=O)c2ccc3[nH]cc(C(=O)O)c(=O)c3c2)CC1
    -3%, -3%
70	Cc1cccc(C(=O)N2CCc3cc(CNC(=O)c4ccco4)ccc32)c1
    -13%, -23%
71	O=C(CSC1CCCCC1)Nc1ccccc1Br
    i, -5%
72	COc1ccc(-n2ncc3c2CC(C)(C)CC3NC(=O)CCc2c(C)noc2C)cc1 (configuration not stated)
    -19%, -16%
73	CCOC(=O)c1c(NC(=O)c2ccccc2Cl)sc2c1CCCC2
    -8%, -3%
74	CNC(=O)C[C@@H]1CC[C@@H]2[C@H](COC[C@H](O)CN2S(=O)(=O)c2ccccc2Cl)O1
    -5%, -10%
75	C#CCOc1c(Br)cc(C2C(C(=O)OC)=C(C)NC3=C2C(=O)c2ccccc23)cc1OCC (configuration not stated)
    -27%, -11%
76	Cc1nc2nc(SCC(=O)NCCc3ccc(Cl)cc3)nn2c(C)c1Cc1ccccc1
    -3%, 3%
77	COc1ccc(-n2nc(C(=O)NCC(=O)Nc3cc(OC)c(OC)c(OC)c3)c3ccccc3c2=O)cc1OC
    -19%, -20%
78	CC1CCN(S(=O)(=O)c2cccc(-c3cn4cc(Cl)ccc4n3)c2)CC1
    i[1.46 µM], -23%
79	CCOC(=O)c1nnn(-c2nonc2N)c1-c1ccc(OC)cc1
    ., -17%
80	C[C@H]1C(=O)N(C)CCN1C(=O)c1ccc(OC2CCN(CCc3ccccc3)CC2)cc1
    -6%, -19%

Full records, quoted from the list. Values in the order: VACV mCherry inh | VACV Venus inh
`Cc1nc2nc(SCC(=O)NCCc3ccc(Cl)cc3)nn2c(C)c1Cc1ccccc1` across the screens: -3% | 3%
`CC(=O)N1CCN(C(c2ccccc2)c2nnnn2C(C)(C)C)CC1` (configuration not stated) across the screens: -1% | 8%
`CNC(=O)C[C@@H]1CC[C@@H]2[C@H](COC[C@H](O)CN2S(=O)(=O)c2ccccc2Cl)O1` across the screens: -5% | -10%
`CCOC(=O)c1nnn(-c2nonc2N)c1-c1ccc(OC)cc1` across the screens: . | -17%

Later entries:
Results follow in this order: VACV mCherry inh, VACV Venus inh
81	CC(NC(=O)/C=C/c1ccccc1[N+](=O)[O-])C1CC2CCC1C2 (configuration not stated)
    i, -4%
82	O=C(CC1SC(N2CCCC2)=NC1=O)Nc1ccc(C(=O)N2CCCC(C(F)(F)F)C2)cc1 (configuration not stated)
    -2%, -6%
83	COc1ccc(C(=O)Nc2ccc(S(=O)(=O)N3CCCCC3)cc2)cc1
    -8%, ?
84	Cn1c(Cc2cccs2)nnc1SC/C=C/c1ccccc1
    ., -15%
85	COC(=O)c1cc(OC)c(OC)cc1NC(=O)Cc1cccs1
    i, -21%
86	CCOCCCNC(=S)N(Cc1ccco1)Cc1cc2cc3c(cc2[nH]c1=O)OCCO3
    i, -10%
87	COc1ccc(N=CC2=C(O)CC(C)(C)CC2=O)cc1
    ., -27%
88	CCc1ccc(NC(=O)CSc2nnc(CNC(=O)c3ccc(OC)cc3)o2)cc1
    -1%, -9%
89	COc1ccc(C)cc1Nc1n[n+](C)c(-c2ccc(O)cc2O)s1
    i, -4%
90	CCn1cc2nc(SCC(=O)Nc3ccc(OC)c(Cl)c3)n(Cc3ccc(OC)cc3)c(=O)c2n1
    -2%, -21%
91	CC1CN(Cc2ccccc2)C(=S)N(c2ccccc2)C1=O (configuration not stated)
    -5%, -23%
92	O=C1c2ccc(-c3ccc(F)cc3OCc3ccccc3)cc2S(=O)(=O)c2cccc(C(=O)N3CCCC3)c21
    -7%, -26%
93	O=C(/C=C/c1ccco1)N1CCc2ccccc21
    i, -15%
94	Cc1ccc(-c2cc(C(=O)NCCCN3CCOCC3)c3ccccc3n2)cc1
    -18%, -13%
95	COc1ccc(-n2c(-c3ccc(Br)cc3)c[n+]3c2CCC3)cc1
    i, -3%
96	CN1C(=O)/C(=C/c2ccco2)SC1=Nc1cccc(C(=O)O)c1
    0%, 15%
97	O=C(/C=N/O)NCCCN1CCOCC1
    -19%, -7%
98	COc1ccccc1N=Cc1c(O)c2ccccc2oc1=O
    i, -14%
99	O=c1[nH]c(CNCc2cccnc2)nc2ccccc12
    i, 2%
100	NC(=O)c1ccc(-n2nnnc2SCC(=O)Nc2ccccc2F)cc1
    -20%, -12%
101	O=C(N=C1SC2CS(=O)(=O)CC2N1c1ccc(F)cc1)C1CCCCC1 (configuration not stated)
    i, -4%
102	O=S(=O)(c1ccccc1)C(/C=N\O)/C=C/c1ccccc1 (configuration not stated)
    -4%, -2%
103	O=C(CS(=O)(=O)c1cn(CC(=O)N2CCOCC2)c2ccccc12)Nc1ccccc1F
    -12%, -8%
104	O=S(=O)(c1ccc(Cl)nc1)N1CCCc2ccccc21
    ?, ?
105	CN1CCC[C@H]1c1cccnc1
    -10%&-21%&-4%, -9%&-7%&-21%&-10%
106	COc1cc(/C=C2\SC(c3ccc(C)cc3)=NC2=O)cc(OC)c1OC
    -13%, -7%
107	COCCNC(=O)C1CCN(Cc2cc3ccccc3n2Cc2ccc(C)cc2)CC1
    -8%, -7%
108	Cn1c(=O)oc2cc(S(=O)(=O)NC3CCN(Cc4ccccc4)CC3)ccc21
    -14%, -13%
109	CCC(C)(C(=O)NC1CCCC1)N(Cc1cccs1)C(C)=O (configuration not stated)
    -6%, -4%
110	Cc1ccc(N2CS(=O)(=O)/C(=C/N(C)C)C2=O)cc1
    -7%, -8%

High-throughput results deposited in PubChem by National Center for Advancing Translational Sciences (NCATS).
